# GCN5L2 inh = blocks human GCN5L2 histone acetyltransferase. Q92830. GCN5L2 HAT assay, ThioGlo1 CoA-SH fluorescence. Potency, µM (highest dose often 58.9 µM), for the others: at the highest dose activity change, negative = inhibition, hits mostly inhibitors. 390,000 compounds, 0.21% hits. AID 504327; active = well fitted inhibition curve with a large enough effect; inconclusive = small, poorly fitted or top-dose-only effect, or another doubt; inactive = no such curve, though single readings can be large or run the other way
# Target sequence (Q92830 whole entry, looked up): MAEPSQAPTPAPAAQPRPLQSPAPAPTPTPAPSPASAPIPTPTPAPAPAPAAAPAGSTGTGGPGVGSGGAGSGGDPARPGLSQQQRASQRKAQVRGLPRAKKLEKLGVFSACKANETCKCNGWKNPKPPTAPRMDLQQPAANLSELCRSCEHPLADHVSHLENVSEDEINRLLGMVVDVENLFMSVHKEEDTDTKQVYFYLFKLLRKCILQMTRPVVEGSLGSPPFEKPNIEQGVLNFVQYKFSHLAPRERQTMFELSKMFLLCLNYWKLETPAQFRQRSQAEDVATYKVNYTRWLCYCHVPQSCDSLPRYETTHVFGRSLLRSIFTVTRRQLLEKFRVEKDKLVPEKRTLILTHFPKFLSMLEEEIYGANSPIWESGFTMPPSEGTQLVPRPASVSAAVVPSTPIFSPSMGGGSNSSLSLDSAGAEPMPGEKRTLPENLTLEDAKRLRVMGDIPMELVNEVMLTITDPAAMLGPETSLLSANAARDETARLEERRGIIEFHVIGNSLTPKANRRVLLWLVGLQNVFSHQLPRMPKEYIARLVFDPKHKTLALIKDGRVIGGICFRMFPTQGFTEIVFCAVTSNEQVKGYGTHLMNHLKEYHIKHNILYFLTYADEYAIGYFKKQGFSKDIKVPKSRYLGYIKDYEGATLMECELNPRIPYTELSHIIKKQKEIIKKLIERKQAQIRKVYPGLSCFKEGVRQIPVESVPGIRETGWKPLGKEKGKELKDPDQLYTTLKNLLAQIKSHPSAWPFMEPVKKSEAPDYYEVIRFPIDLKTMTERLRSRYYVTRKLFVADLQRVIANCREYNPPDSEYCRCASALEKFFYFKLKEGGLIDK
#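 GCN5L2 (20 nM) in 50mM HEPES pH 7.5, 0.1mM EDTA, 0.01% Tween-20 preincubated 15 min with compounds at room temperature. Reaction started with H3(1-25) 75uM, acetyl-CoA 70uM, ThioGlo1 50uM; CoA-thiol fluorescence (Ex340/Em540) read at 0 and 20 min.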
# * marks the source's active call; other numbers are inactive results; ? = inconclusive; & = joins results of further samples; [ ] = another dose, or the depositor's remark. % is set by controls: 0 for no effect and ±100 for the full control effect; potency is the fitted concentration of half-maximal effect.
molecule	GCN5L2 inh
COc1cc(C(=O)Nc2cccc(S(=O)(=O)N3CCCC3)c2)cc(OC)c1C	-8.1%
Cc1ccc2nc3c(c(Nc4ccc(C)c(C)c4)c2c1)CCC3	-3.4%
CCc1ccc(CNC(=O)C2CCC(=O)N2C2CCCCC2)cc1 (configuration not stated)	-7.2%
CC(=O)N1C(=O)N(C(C)=O)C2C1N(C)C(=O)N2C(C)=O (configuration not stated)	-0.8%
Cc1nn(CC(=O)NCCCc2ccccc2)c(C)c1[N+](=O)[O-]	-3.5%
Cn1ccc(C(=O)Nc2cccnc2Cl)n1	-23.9%
CCOC(=O)c1c(NC(C)=O)sc2c(OC)cccc12	-9.5%
Cc1ccc(NC(=O)Cn2nc(-c3ccccc3)nc(Cc3ccc(Cl)cc3)c2=O)cc1	-4.3%
Cc1ccc(Nc2ccc(S(=O)(=O)N3CCOCC3)cc2[N+](=O)[O-])c(C)c1	-8.9%
N#Cc1cn(-c2ccccc2)nc1-c1ccco1	-6.0%
O=C(CN(Cc1ccc(F)cc1)C(=O)CNS(=O)(=O)c1ccccc1)NCC1CCCO1 (configuration not stated)	1.3%
COc1ccc(S(=O)(=O)NCCSC(C)(C)C)cc1Cl	-6.4%
CS(=O)(=O)N1CCN(C2Cc3ccccc3C2)CC1	-3.7%
CC(C)COC(=O)C(C#N)c1nc2ccccc2nc1N1CCN(Cc2ccc3c(c2)OCO3)CC1 (configuration not stated)	-3.0%
CCN(CC)c1ccc(/C=N/NC(=S)NCc2ccco2)cc1	-14.1%

# Following part:
molecule	GCN5L2 inh
CC(=O)c1ccc(C(=O)NC2CCCN(Cc3ccccc3F)C2)s1 (configuration not stated)	?
O=C(Cc1ccccc1)NCCCc1ccccc1	-3.4%
Cc1ccc(S(=O)(=O)n2nc(OC(=O)c3cccc(F)c3)cc2N)cc1	1.4%
Cc1ccc(S(=O)(=O)N2CCOCC2)cc1C(=O)OCCOc1cccc(Cl)c1	-3.5%
Cc1nnc(SCC(=O)NCCC2=CCCCC2)[nH]c1=O	-2.4%
CSc1nc2nc(C(F)(F)F)cc(-c3ccccc3)n2n1	-5.4%
CN1CCN(S(=O)(=O)c2cccc(C(=O)N3CCc4ccccc43)c2)CC1	-6.1%
Cn1c(=O)c2sccc2n2c(CCCC(=O)NC3CCN(Cc4ccccc4)CC3)nnc12	-9.9%
C=CCn1c(Br)nc2c1c(=O)n(C)c(=O)n2C	-0.5%
CC1CCCC(CC(=O)O)(CC(=O)O)C1 (configuration not stated)	-3.0%
O=C(COC(=O)c1ccccc1Br)NCC1CCCO1 (configuration not stated)	-0.5%
O=C(c1cccc(Cl)c1)N1c2ncnn2C2(CCCCC2)[C@@H]2CCCC[C@@H]21	-4.8%
COC(=O)c1cc(S(=O)(=O)Nc2cc(S(=O)(=O)N(C)C)ccc2C)oc1C	-8.7%
CCOC(=O)c1cc(CN2CCOCC2)oc1-c1ccccc1	-5.8%
CCC(Sc1ncccc1C(=O)OC(C)C)C(=O)NCc1ccco1 (configuration not stated)	-5.8%[0.501 µM]

# Next section; it opens with the three that closed the last part.
molecule	GCN5L2 inh
COC(=O)c1cc(S(=O)(=O)Nc2cc(S(=O)(=O)N(C)C)ccc2C)oc1C	-8.7%
CCOC(=O)c1cc(CN2CCOCC2)oc1-c1ccccc1	-5.8%
CCC(Sc1ncccc1C(=O)OC(C)C)C(=O)NCc1ccco1 (configuration not stated)	-5.8%[0.501 µM]
COc1ccccc1CN(Cc1cc2cc(C)ccc2[nH]c1=O)Cc1nnnn1Cc1ccco1	-15.3%
O=C(c1ccco1)N1CCN(C2CCCC2)CC1	3.7%
O=C1CCC(=O)N1c1ccc(NCc2ccccc2Cl)c([N+](=O)[O-])c1	1.7%
CCNc1nc(NCc2ccc(F)cc2)c2cnn(C)c2n1	-3.0%
CCOC(=O)C1CCCN(C(=O)c2ccc(OCC)cc2)C1 (configuration not stated)	-1.8%
Cc1cc(C)cc(N(CCC#N)C(=O)COC(=O)CN2C(=O)NC(C)(C)C2=O)c1	-2.5%
NC(=O)NC(CC(=O)NNC(=O)c1ccccn1)c1ccc(Cl)cc1 (configuration not stated)	3.1%
O=C(CCS(=O)(=O)c1ccccc1)Nc1cccc2c1C(=O)NC2=O	-8.0%
Cc1ccc(NC(=O)CSc2nncn2-c2ccccn2)cc1Cl	-15.4%
COc1ccc(C(=O)O/N=C(/c2ccccc2)c2ccncc2)cc1OC	-6.6%
Cc1cc(C)c2c(CC(=O)NC3CCS(=O)(=O)C3)coc2c1 (configuration not stated)	-8.7%
CCOC(=O)C1=C(CP(=O)(c2ccccc2)c2ccccc2)NC(=O)NC1c1ccc(Cl)cc1 (configuration not stated)	-12.5%
COc1ccccc1NC(=O)Cn1c(=O)n(-c2ccc(C)cc2)c(=O)c2c1cnn2C	-6.3%
Cc1nn(-c2ccccc2)c2sc(C(=O)NC3CC3)cc12	-9.8%
O=c1c2ccccc2cnn1Cc1n[nH]c(=S)n1-c1cc(Cl)cc(Cl)c1	0.0%

# 7 successive entries from above, for reference:
molecule	GCN5L2 inh
Cc1ccc(S(=O)(=O)n2nc(OC(=O)c3cccc(F)c3)cc2N)cc1	1.4%
Cc1ccc(S(=O)(=O)N2CCOCC2)cc1C(=O)OCCOc1cccc(Cl)c1	-3.5%
Cc1nnc(SCC(=O)NCCC2=CCCCC2)[nH]c1=O	-2.4%
CSc1nc2nc(C(F)(F)F)cc(-c3ccccc3)n2n1	-5.4%
CN1CCN(S(=O)(=O)c2cccc(C(=O)N3CCc4ccccc43)c2)CC1	-6.1%
Cn1c(=O)c2sccc2n2c(CCCC(=O)NC3CCN(Cc4ccccc4)CC3)nnc12	-9.9%
C=CCn1c(Br)nc2c1c(=O)n(C)c(=O)n2C	-0.5%

# Continued:
molecule	GCN5L2 inh
CCN(CC)S(=O)(=O)c1ccc(N2CCOCC2)c(NC(=O)c2cnccn2)c1	-2.9%
O=C(O)/C=C/c1cn(-c2ccccc2)nc1-c1cccc([N+](=O)[O-])c1	0.9%
CCc1ccccc1NC(=O)N1CCN(c2cc(-c3noc(C)n3)ccc2C)CC1	12.5%
Cc1cccc(C)c1NC(=S)NN1CCN(C)CC1	-1.0%
COCCCN(Cc1ccco1)C(=O)Cn1ncc2c(=O)oc3ccc(C)cc3c21	-11.3%
Cc1ccc(C)c(S(=O)(=O)NC2CCSC2=O)c1 (configuration not stated)	0.0%
Cn1cc(S(=O)(=O)c2ccc(Cl)cc2)c(=O)c2cc(F)c(N3CCCCCC3)cc21	-1.2%
Cc1c(C(=O)NCc2ccccc2Br)oc2c1-c1[nH]ncc1CC2	-7.6%
COc1ccccc1NC(=O)c1ncn(-c2ccccc2)n1	-15.5%
COc1ccc(-n2nc(C(=O)NCC(=O)N3CCN(c4ccccc4)CC3)c3ccccc3c2=O)cc1OC	-5.1%
CCC1CCCCN1CCCNC(=O)Cn1nc(-c2ccc(C)cc2)ccc1=O (configuration not stated)	25.7%
Cc1ccc(NC2c3ccccc3C(=O)N2CCN2CCOCC2)cc1 (configuration not stated)	-13.0%
CCNC(=S)N1CCN(S(=O)(=O)c2ccccc2C(F)(F)F)CC1	-0.1%
CCc1cc2cc(OC)ccc2nc1SCC(=O)NNC(=O)c1ccco1	-0.3%
CCOC(=O)CNC(=O)Cn1nc(N2CCN(c3ccccc3)CC2)ccc1=O	0.5%

# Additional structures
molecule	GCN5L2 inh
c1csc(-c2nnc(NC3CCCCC3)c3ccccc23)c1	-9.5%
CN(CC(=O)Nc1ccc(F)cc1)C(=O)Cn1nnc(-c2ccccc2)n1	-2.3%
Cc1ccc(F)cc1S(=O)(=O)N1CCC(c2nc3ccccc3s2)CC1	-5.0%
COc1ccc(CNS(=O)(=O)c2cccc(S(=O)(=O)N3CCOCC3)c2)cc1	-4.9%
CCOC(=O)c1c(C)n(C)c2ccc(OC)c(NC(=O)CCN3CCC(Cc4ccccc4)CC3)c12	-3.2%
Cc1ccc(S(=O)(=O)c2nc(-c3ccco3)oc2SCC(C)C)cc1	-6.9%
Cn1nnnc1SCC(=O)N1c2ccccc2CCc2ccccc21	-11.9%
CC(C)(C)OC(=O)NNC(=O)NC12CC3CC(CC(C3)C1)C2	3.7%
COc1ccccc1C(C#N)N1N=C(C)CC1(C)C (configuration not stated)	-0.8%
O=C(O)CCSc1nnc(COc2cccc3cccnc23)n1-c1ccccc1	-14.1%
COC(=O)[C@@H]1CCCN1C(=O)CCc1nnc(C2CCCCC2)o1	-3.3%
Cc1cc(NC(=O)CSCC(=O)Nc2ccc(Cl)c(C(F)(F)F)c2)no1	-6.1%
COc1ccc2cc([C@H](C)C(=O)O)ccc2c1	2.9%
COc1ccc(OC)c(S(=O)(=O)n2ccnc2C)c1	-8.5%
O=c1c2cnn(-c3ccccc3)c2ncn1Cc1ccco1	1.0%

# Other structures follow:
molecule	GCN5L2 inh
CCC(=O)Nc1ccc(S(=O)(=O)Nc2ncccn2)cc1	-6.0%[0.501 µM]
O=C1N[C@H](Cc2ccccc2)CO1	-3.7%
CCn1c(=O)c([N+](=O)[O-])c(NCc2ccc3c(c2)OCO3)c2ccccc21	-3.1%
CCOc1ccccc1N1CCN(C(=S)NCc2ccco2)CC1	-1.3%
COc1cc(/C=C/C(=O)O)cc(S(=O)(=O)Nc2cccc(S(=O)(=O)N3CCOCC3)c2)c1OC	-10.5%
CSc1cccc(NC(=S)N(CCCN2CCC(C)CC2)Cc2cccs2)c1	-3.0%
Cc1cccc(C(=O)NCC(=O)OCC(=O)c2cc(C)n(CC3CCCO3)c2C)c1 (configuration not stated)	-2.8%
Cc1ccccc1-c1nc(CN2CCC(C(=O)NC(C)C)CC2)c(C)o1	1.3%
CC(C)NC(=O)C1CCN(C2CCN(Cc3ccc4cccc(F)c4n3)CC2)CC1	1.7%
CCCCN1CC(=O)N2[C@H]3c4cc(Cl)ccc4OC[C@@H]3[C@H](c3ccccc3)[C@]2(C)C1=O	-11.8%
CNC(=S)Nc1ccc(OC)c(OC)c1	2.6%
COc1ccc(CNC(=O)Cc2c(C(=O)O)[nH]c3ccccc23)cc1	0.0%
Cc1cc(C)c(-c2csc(NC(=O)C3=NN(c4ccccc4)C(=O)CC3)n2)c(C)c1	-6.7%
Cc1ncc(CN2CCN(C3CCCC3)C(CCO)C2)s1 (configuration not stated)	?
COc1ccc(-c2oc3cc(OC)c(O)c(OC)c3c(=O)c2OC)cc1O	0.4%

# The list continues:
molecule	GCN5L2 inh
COCC(C)NC(=O)c1noc2c1CCc1cc(OC)ccc1-2 (configuration not stated)	-7.4%
C/C(=N/NC(=O)c1ccc(Br)s1)c1cccnc1	-2.3%
CC(=O)c1cccc(NC(=O)CN2C(=O)C(=O)N(Cc3ccco3)C2=O)c1	-8.2%
Cc1cccc(Nc2c(F)c(F)c(F)c(F)c2C(=O)O)c1	-9.1%
COc1ccc(NC(=O)CN2C(=O)NC3(CCCCC3C)C2=O)cc1S(=O)(=O)N1CCOCC1 (configuration not stated)	-3.6%
COc1cc(NC(=O)COC(=O)c2cc(S(=O)(=O)N3CCOCC3)ccc2F)cc(OC)c1	-3.0%
Cc1cccc(C)c1NC(=O)C1(C)c2cccc[n+]2CC(=O)N1Cc1cccs1 (configuration not stated)	-2.4%
N#C/C(=C\c1cn(Cc2ccc(C#N)cc2)c2ccccc12)C(=O)NCc1cccs1	1.0%
O=C(Cn1nc(Cc2cccnc2)c2ccccc2c1=O)Nc1ccc2c(c1)OCO2	1.8%
CCOC(=O)c1nnn(CC(=O)Nc2cc(Cl)ccc2C)c1C(=O)OCC	-4.3%
CCC(=O)N/C=C/n1cnc2cc(C(F)(F)F)ccc21	1.7%
N#Cc1cc(-c2ccccc2)cn(Cc2c(Cl)cccc2Cl)c1=O	-27.5%
Cc1nc(NC2=NCN(Cc3cccnc3)CN2)nc2ccccc12	0.1%
CC(Oc1ccc(C(=O)c2ccccc2)cc1)C(=O)Nc1ccc(S(N)(=O)=O)cc1 (configuration not stated)	-3.5%
O=S(=O)(NCc1ccco1)c1ccc(S(=O)(=O)N2CCCCC2)cc1	-2.5%

# Continuation.
molecule	GCN5L2 inh
COc1ccc(OC)c(C(=O)COC(=O)CN2C(=O)NC3(CCCCC3C)C2=O)c1 (configuration not stated)	-1.3%
O=C(Nc1ccc(F)c(F)c1)C1CCCN(S(=O)(=O)c2cccc3nonc23)C1 (configuration not stated)	-0.5%&-17.8%
CC1Cc2ccccc2N1C(=O)CN1C(=O)CN(C)C(=O)c2ccccc21 (configuration not stated)	-3.6%
CC(O)CSc1nc2c(c(=O)[nH]c(=O)n2C)n1Cc1ccccc1Cl (configuration not stated)	-14.6%
COC(=O)c1cn(C)c2ccc(S(=O)(=O)N3CC(C)CC(C)C3)cc2c1=O (configuration not stated)	0.2%
Cc1ccc(S(=O)(=O)N2CCOCC2)cc1NC(=O)c1ccc(F)cc1F	-9.5%
Cc1cc(Cl)ccc1OC(C)C(=O)NCCc1ccc2c(c1)OCCO2 (configuration not stated)	-11.1%
COc1ccc(C(=O)NCC(=O)N2CCN(c3ccc(F)cc3)CC2)cc1	-2.1%
Nc1cc(C(=O)OCC(=O)c2ccc(CC(=O)N3CCOCC3)s2)ccc1Cl	-26.0%
Cc1cc(NC(=O)c2ccno2)no1	0.9%
C/C(=N\NC(=O)c1ccc(-n2cnnn2)cc1)c1ccc(Cl)cc1	-0.9%
COC(=O)C(C)NS(=O)(=O)c1ccc(NC(C)=O)cc1 (configuration not stated)	-12.3%
O=C(NCc1ccccn1)c1ccc(OC2CCN(Cc3ccc(Cl)s3)CC2)cc1	-1.4%

# Some of the compounds tested, and most or all hits are left out here.
